Source: PubChem
EPAC1 ag val – human EPAC1 agonism, validation. EPAC1 Rap1b BODIPY-GDP exchange, fluorescence. Potency, µM, for the others: max response, positive = active, hits mostly activators. 16,000 tested, 1% active; active = well fitted activation curve with a large enough effect; inconclusive = small, poorly fitted or top-dose-only effect; inactive = no such curve, though single readings can be large or run the other way;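 note: nearly all actives have a fitted effect of over 70% in size; series mostly up to about 76 or 150 µM; scaled to a cAMP control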
Target sequence (O95398 whole entry, looked up): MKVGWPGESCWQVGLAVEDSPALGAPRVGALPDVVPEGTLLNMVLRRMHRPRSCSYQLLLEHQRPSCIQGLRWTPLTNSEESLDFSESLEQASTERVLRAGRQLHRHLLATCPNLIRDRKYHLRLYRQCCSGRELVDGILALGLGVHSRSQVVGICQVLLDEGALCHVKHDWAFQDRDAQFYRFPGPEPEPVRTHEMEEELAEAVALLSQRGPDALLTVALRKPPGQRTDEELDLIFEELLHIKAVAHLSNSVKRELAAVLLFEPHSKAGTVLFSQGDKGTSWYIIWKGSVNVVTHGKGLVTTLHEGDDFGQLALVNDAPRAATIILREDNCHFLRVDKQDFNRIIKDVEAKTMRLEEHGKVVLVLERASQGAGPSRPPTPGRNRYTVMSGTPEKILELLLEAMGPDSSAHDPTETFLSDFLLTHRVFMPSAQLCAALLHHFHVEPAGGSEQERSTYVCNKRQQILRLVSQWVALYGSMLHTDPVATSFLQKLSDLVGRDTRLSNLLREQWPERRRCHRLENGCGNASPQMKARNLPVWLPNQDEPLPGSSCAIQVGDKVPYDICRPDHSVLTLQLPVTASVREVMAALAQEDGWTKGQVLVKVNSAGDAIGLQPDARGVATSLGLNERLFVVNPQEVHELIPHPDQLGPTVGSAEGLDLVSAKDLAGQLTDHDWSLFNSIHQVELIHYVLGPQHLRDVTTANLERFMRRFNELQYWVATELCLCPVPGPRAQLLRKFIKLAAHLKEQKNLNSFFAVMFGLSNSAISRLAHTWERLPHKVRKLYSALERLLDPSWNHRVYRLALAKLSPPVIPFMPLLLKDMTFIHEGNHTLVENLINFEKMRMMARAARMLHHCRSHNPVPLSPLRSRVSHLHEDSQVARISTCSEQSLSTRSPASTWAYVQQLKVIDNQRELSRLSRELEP
Active calls of the source: *; u = inconclusive; & = joins results of further samples; [ ] = remark or other dose. % is set by controls: 0 for no effect and ±100 for the full control effect; potency is the fitted concentration of half-maximal effect. This is a subset. The share of hits here may be higher or lower than overall.

smiles,EPAC1 ag val
CC(=O)OCC(=O)[C@@]12OC(C)(C)OC1CC1C3CC(F)C4=CC(=O)C=C[C@@]4(C)[C@@]3(F)C(O)C[C@]12C (some centres not stated),-24%
COc1cccc(-c2ccc(O)c(CNCc3cccc4ccccc34)c2)n1,-4%
O=c1cnc2cnc(Oc3cccc(Cl)c3)nc2n1C[C@H]1CCCO1,-9%
c1ccc(-c2cccc(N3CCCC4(CCNCC4)C3)c2)cc1,-7%
COc1ccc2[nH]cc(CCNc3ncncc3-c3cccc(C#N)c3)c2c1,1%
FC(F)(F)c1ccccc1-c1cncnc1NCc1cccnc1,-22%
Nc1cc(Cl)c(NC2=NCCN2)c(Cl)c1,2%&0%
CCNc1ncc2nc(-c3cn(C)c4ccccc34)c(=O)n(-c3ccccc3)c2n1,u
Cc1cccc(CN2CCN(C(c3ccccc3)c3ccc(Cl)cc3)CC2)c1 (configuration not stated),4%&-8%
O=c1n(CC2CO2)c(=O)n(CC2CO2)c(=O)n1CC1CO1 (configuration not stated),-23%
CC(=O)NCCNc1ncnc2ccc(-c3ccc4c(c3)OCO4)cc12,-7%
C=C1CCC2C(CC2(C)C)C(=C)CC/C1=N/O (configuration not stated),-13%
Cc1cc(O)c2c(O)c3c(O)cccc3cc2c1,-55%[inhibitor]
CC(C)(C)CC(C)(C)c1ccc(OCCO)cc1,-52%[inhibitor]
CCCCC1(COC(=O)CCC(=O)O)C(=O)N(c2ccccc2)N(c2ccccc2)C1=O,-20%&-13%
CCCCCCCCCCCCCCC(C(=O)OC)C(O)(CC(=O)OC)C(=O)OC (configuration not stated),-191%[inhibitor]
c1csc(CNc2ccnc(-c3ccc4c(c3)OCO4)n2)c1,u
Cc1ccc(C(=O)Nc2cccc(-c3nc(CNC(=O)c4ccccc4-n4cccn4)c(C)o3)c2)s1,-3%
CC(C)C(=O)NC(C)c1nnc2n1CCN(Cc1cccc3ncccc13)CC2 (configuration not stated),-1%
CC(=O)N[C@@H]([C@@H](O)[C@H](O)[C@H](O)CO)[C@@H](O)CC(=O)C(=O)O,-7%
COc1cc(CNC(=O)CCCC/C=C/C(C)C)ccc1O,-36%&-62%&-9%&-39%[inhibitor]
Cc1cccc2c(N3CCCC3)nc(CNS(=O)(=O)c3ccccc3Cl)nc12,9%
O=C(Nc1cccc(F)c1)N1CC[C@@]2(CCCN(C(=O)c3cccc(F)c3)C2)C1,-48%[inhibitor]
CC(N)=O,1%
CN(C)S(=O)(=O)c1ccc2c(c1)/C(=C/c1cc3c([nH]1)CCCC3)C(=O)N2,-19%
O=C(c1cc(C(F)(F)F)cc(C(F)(F)F)c1)N1CCC2(CC1)CN(Cc1ccncc1)C2,-22%
CCC(C)(CN(C)C)OC(=O)c1ccccc1 (configuration not stated),-6%
O=c1c(CCc2ccccc2)nc2cnc(N3CCOCC3)nc2n1CCc1ccccc1,-1%
CC(C)(C)c1onc(OCP(=O)(O)O)c1CC(N)C(=O)O (configuration not stated),-4%&-9%
Cc1cccc(CNc2ncnc3ccc(-c4ccoc4)cc23)c1,2%

Other entries.
smiles,EPAC1 ag val
Nc1nc(N)c2nc(-c3ccccc3)c(N)nc2n1,10%&-11%&-10%
O=c1cc(-c2ccccc2)oc2cc(O)c(O)c(O)c12,-7%&-10%&-14%
C[C@H]1C[C@H]2[C@@H]3CCC4=CC(=O)C=C[C@]4(C)[C@@]3(Cl)[C@@H](O)C[C@]2(C)[C@@]1(O)C(=O)CO,13%
CC(Oc1ccccc1)C(=O)N[C@@H]1C(=O)N2[C@@H]1SC(C)(C)[C@@H]2C(=O)OCc1ccccc1 (some centres not stated),-49%[inhibitor]
COC(=O)c1ccccc1C(=O)NCC1Cc2cc(-c3nc(C)cnc3C)ccc2O1 (configuration not stated),-10%
COc1cc2nc(N3CCN(C(=O)[C@H]4CCCO4)CC3)nc(N)c2cc1OC,0%
COc1ccc(/C=C/C(=O)CC(=O)/C=C/c2cccc(O)c2OC)cc1O,-7%
O=C(c1cccc(F)c1)N1CCC2(CC1)CCN(c1ccccc1)CC2,-29%
COCCn1c(=O)c(C)nc2cncnc21,4%
Nc1ncnc2c1ncn2[C@@H]1O[C@H](COP(=O)(O)CP(=O)(O)OP(=O)(O)O)[C@@H](O)[C@H]1O,1%&-11%
CC(=O)O[C@H]1C[C@@H]2CC[C@@H]3[C@H](CC[C@@]4(C)[C@H]3C[C@H](N3CC[N+](C)(C)CC3)[C@@H]4OC(C)=O)[C@@]2(C)C[C@@H]1N1CC[N+](C)(C)CC1,-8%
Cc1cc(=O)c2c(O)c3c(O)cc(O)c4c5c(O)cc(O)c6c(O)c7c(=O)cc(C)c8c1c2c(c34)c(c65)c78,-10%
Clc1cccc[n+]1CCc1ccccc1,-69%[inhibitor]
C[C@H]1CC[C@@H]2N(C1)C[C@H]1[C@@H]3C[C@H]4[C@@H](C/C(=N\O)[C@H]5C[C@@H](O)CC[C@@]54C)[C@@H]3CC[C@H]1[C@]2(C)O,-14%
CC1=CCC(C(C)(C)O)CC1 (configuration not stated),-8%
COc1cc(-c2noc(C)c2/C=C/c2ccc(N)cc2)cc(OC)c1OC,-9%
CC(=O)Oc1ccccc1C(=O)O,2%&-14%&25%
N[C@@H](Cn1ccc(=O)n(Cc2ccccc2C(=O)O)c1=O)C(=O)O,7%
CCCCC[C@H](O)/C=C/[C@H]1C(=O)C=C[C@@H]1C/C=C\CCCC(=O)O,-17%
O=c1c(-c2ccc(O)cc2)coc2c(C3OC(CO)C(O)C(O)C3O)c(O)ccc12 (configuration not stated),18%
CCCCN1CCCC[C@H]1C(=O)Nc1c(C)cccc1C,10%
COc1ccc2[nH]cc(CCNc3cc(-c4ccccc4OC)ncn3)c2c1,-25%
CCCN(C/C=C\I)[C@@H]1CCc2cccc(O)c2C1,-16%
CN(C)Cc1ccccc1-c1cncnc1Nc1ccc(F)cc1,8%
C=C1CCC2[C@](C)(CO)[C@H](O)CC[C@@]2(C)[C@@H]1C/C=C1/C(=O)OC[C@H]1O (some centres not stated),-15%
Cc1cnc(CNc2ncncc2-c2ccccc2C(F)(F)F)cn1,-24%
C[C@@H]1c2ccccc2CN1CC1=NCCN1,-3%
CC(C)NC(=O)N1CCCC2(CCN(C(=O)c3ccco3)CC2)C1,-47%[inhibitor]
O=C1CSC2(CCN(CCCN3c4ccccc4Sc4ccc(Cl)cc43)CC2)N1,19%
Cc1nc2cc(NC(=O)[C@@H]3C[C@@H](Sc4ccccn4)CN3Cc3cccc(Cl)c3)ccc2s1,2%

By substructure, those above with a CF3 group (3)
smiles,EPAC1 ag val
FC(F)(F)c1ccccc1-c1cncnc1NCc1cccnc1,-22%
O=C(c1cc(C(F)(F)F)cc(C(F)(F)F)c1)N1CCC2(CC1)CN(Cc1ccncc1)C2,-22%
Cc1cnc(CNc2ncncc2-c2ccccc2C(F)(F)F)cn1,-24%

Carrying on.
SMILES	EPAC1 ag val
CN1CC(O)C2=CC(=O)C(=O)C=C21 (configuration not stated)	0%
C#CC1(O)CC[C@H]2[C@@H]3CCC4=CCCC[C@@H]4[C@H]3CC[C@@]21C (some centres not stated)	u
CN1CCN(c2ncc3nc(-c4ccc(Cl)cc4)c(=O)n(C4CC4)c3n2)CC1	-70%[inhibitor]
CC(C)c1c(C(=O)N(C)Cc2cccc3ncccc23)cnn1-c1nccc(-c2ccccc2F)n1	14%
COc1ccc2c(c1)CCc1cnc(-n3ncc(C(=O)NCc4cccnc4)c3C3CC3)nc1-2	-12%
COC1OC2COC(c3ccccc3)OC2C(O)C1O (configuration not stated)	4%
CC(=O)NCCCS(=O)(=O)O	3%
Nc1nc2c(ncn2[C@@H]2O[C@H](COP(=O)(O)OP(=O)(O)OP(=O)(O)O)[C@@H](O)C2O)c(=O)[nH]1 (some centres not stated)	-1%
CC(=O)NCCNc1ncnc2ccc(-c3ccccc3C#N)cc12	-28%
O=C1CC[C@H](C(=O)O)N1	2%
CC(=O)Nc1ccc(C(=O)N2CCCC(n3cc(C(=O)NCC(C)C)nn3)C2)cc1 (configuration not stated)	10%
O=C(c1cc(C(F)(F)F)cc(C(F)(F)F)c1)N1CCC2(CCN(Cc3ccncc3)CC2)CC1	-5%
C[C@@H]1NS(=O)(=O)[C@H]2C[C@@H]3C=C[C@]2(O3)[C@H]1OC(=O)Nc1ccc(C(F)(F)F)cc1[N+](=O)[O-]	-12%
CCOC(=O)NNc1ccc(N(CC)CC(C)O)nn1 (configuration not stated)	12%
CSc1nnc(CCNC(=O)c2ccc(-c3cccc(F)c3)cc2)n1-c1ccc(F)cc1	-9%
CNC(=O)[C@H]1O[C@H](n2cnc3c(NCc4cccc(I)c4)ncnc32)[C@@H](O)[C@@H]1O	3%
COc1cccc(Cn2c(=O)cnc3cnc(OCc4ccccc4)nc32)c1	5%
O=C(NCCc1nnc2n1CCN(Cc1c(F)cccc1F)CC2)c1ccco1	-28%
CS(=O)(=O)c1ccc(C(O)C(CO)NC(=O)C(Cl)Cl)cc1 (configuration not stated)	25%
CN(CC(=O)O)c1ccc(/C=C2\C=Cc3ccccc32)cc1	7%&-7%

Quoted from the results shown, 4 compounds:
SMILES	EPAC1 ag val
COc1cccc(Cn2c(=O)cnc3cnc(OCc4ccccc4)nc32)c1	5%
O=C(NCCc1nnc2n1CCN(Cc1c(F)cccc1F)CC2)c1ccco1	-28%
CS(=O)(=O)c1ccc(C(O)C(CO)NC(=O)C(Cl)Cl)cc1 (configuration not stated)	25%
CN(CC(=O)O)c1ccc(/C=C2\C=Cc3ccccc32)cc1	7%&-7%

Among those listed so far, these have two or more sulfur atoms.
SMILES	EPAC1 ag val
O=C1CSC2(CCN(CCCN3c4ccccc4Sc4ccc(Cl)cc43)CC2)N1	19%
Cc1nc2cc(NC(=O)[C@@H]3C[C@@H](Sc4ccccn4)CN3Cc3cccc(Cl)c3)ccc2s1	2%

New compounds follow:
SMILES	EPAC1 ag val
Cc1noc(C)c1-c1nc(N(C)C)c2ccccc2n1	-45%[inhibitor]
Cc1c(N)nc([C@H](CC(N)=O)NC[C@H](N)C(N)=O)nc1C(=O)N[C@H](C(=O)N[C@H](C)[C@@H](O)[C@H](C)C(=O)N[C@H](C(=O)NCCc1nc(-c2nc(C(=O)NCCCCN=C(N)N)cs2)cs1)[C@@H](C)O)[C@@H](O[C@@H]1O[C@@H](CO)[C@@H](O)[C@H](O)[C@@H]1O[C@H]1O[C@H](CO)[C@@H](O)[C@H](OC(N)=O)[C@@H]1O)c1cnc[nH]1	5%&21%
COCCn1c(=O)c(-c2cc(F)cc(F)c2)nc2cncnc21	-7%
CC(C)(C)[C@H]1CCC(=O)N([C@H](CC#N)Cc2ccccc2)CC1	-41%[inhibitor]
CN1C(=O)c2ccccc2C1=O	-10%
[N-]=[N+]=NC[C@H](Cc1ccccc1)N1CC[C@@H](O)CCC1=O	12%
CCC[C@@H]1C[C@@H](C(=O)N[C@@H]([C@H]2O[C@H](SC)[C@H](OP(=O)(O)O)[C@@H](O)[C@H]2O)[C@H](C)Cl)N(C)C1	4%&0%
Cc1nc2cnc(Nc3ccccc3)nc2n(Cc2cccs2)c1=O	-93%[inhibitor]
O=c1cnc2cnc(OCc3ccccc3)nc2n1CCc1ccccc1	u
CCn1c(-c2cccnc2)nc2cc(NC(=O)COC)cc(C(=O)N3CCOc4ccccc4C3)c21	-7%
C[C@H](CCC(=O)O)[C@H]1CC[C@H]2[C@H]3C(C[C@H](O)[C@]12C)[C@@]1(C)CC[C@@H](O)C[C@H]1C[C@H]3O (some centres not stated)	4%
CC1CCC(C(C)[C@H]2CCC3C4CC(=O)C5C[C@@H](O)CC[C@]5(C)C4CC[C@@]32C)=NC1 (some centres not stated)	-12%
COc1cccc(-c2nccc(NCc3cccnc3)n2)c1	-1%
CC(C)(C)CC(C)(C)c1ccc(OCCOCC[N+](C)(C)Cc2ccccc2)cc1	-23%&-74%
O=C(NC1CCC(n2cc(C(=O)NC3CC3)nn2)CC1)C(=O)c1ccccc1 (configuration not stated)	-8%
COC(=O)N1CCC[C@@]2(CCN(C(=O)Nc3ccccc3)C2)C1	u
COc1ccccc1C(=O)N[C@@H]1c2ccccc2C2(CCN(Cc3c(O)cccc3OC)CC2)[C@H]1O	-5%
N#Cc1cccc(NC(=O)N2CC[C@@]3(CCCN(S(=O)(=O)c4ccccc4)C3)C2)c1	-2%
CS(=O)(=O)Nc1cccc(-c2cncnc2Nc2ccc(F)cc2)c1	-35%[inhibitor]
COc1cccc(-c2cc(NCc3ccccc3OC)ncn2)c1	u

More structures follow.
SMILES	EPAC1 ag val
COc1ccccc1CN1CCCC2(CCN(C(=O)c3ccco3)CC2)C1	-50%[inhibitor]
O=c1[nH]cnc2c1ncn2[C@H]1CC[C@@H](CO)O1	-23%
Cc1ccsc1C1Cc2c(C(=O)NCc3cccnc3)c(=O)cc(C)n2-c2ccccc2S1 (configuration not stated)	-4%
COCc1c(C(=O)N2CCCCCC2)cnn1-c1nccc(-c2cccs2)n1	-3%
NC[C@H]1O[C@H](O[C@H]2[C@H](O)[C@@H](O[C@H]3O[C@H](CO)[C@@H](O)[C@H](N)[C@H]3O)[C@H](N)C[C@@H]2N)[C@H](N)C[C@@H]1O	-13%
CCCCCC(=O)/C=C/C=C\CCCCCCCC(=O)O	-8%
CCNc1ncc2nc(CCc3ccccc3)c(=O)n(-c3ccc(OC)cc3)c2n1	u
O=[N+]([O-])c1cccc2c(Br)[nH]nc12	4%&-21%&1%&-30%
CCCCCCCC/C=C\CCCCCCCC(=O)NCCO	0%&-27%&-74%
CN(C)c1ccc(-c2cc(N(C)Cc3ccco3)ncn2)cc1	25%
CN(C)CCOC(=O)COc1ccc(Cl)cc1	1%&10%&-7%
COC(=O)C1CCN(Cc2ccc3c(c2)CN(C(=O)c2cc(C)nc(C)n2)CCO3)CC1	5%
CC(=O)c1ccc[n+](CC(=O)c2ccc(F)cc2)c1	1%
CN(C)C(=O)c1ccc(-c2nccc(NCc3cccs3)n2)cc1	-33%[inhibitor]
O=C(O)c1nc2cc(Cl)c(Cl)cc2[nH]c1=O	-9%
CC(=O)OCCNC(=O)c1cccnc1	5%
